Source: PubChem (several laboratories)
Beta cell apopt: inhibitors of cytokine-induced beta cell apoptosis, primary screen, luminescence; protection from apoptosis, % (no concentration beside the values); INS-1E cytokine-induced death, ATP luminescence, 48 h; percent of positive-control rescue, neutral wells zero; AID 435005, 2010; 0.8% of 300,000 active;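 active = all replicates at 75% or more, or half of them and the mean; inconclusive = half reach 75% but not the mean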;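 also: 0% = cytokine-treated negative control wells and 100% = positive control rescue; higher means more ATP so stronger rescue from cytokine killing; wells of about 40 µL received 100 nL stock; the first replicate is given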
E coli growth: E. coli growth inhibition, primary screen, OD600. Escherichia coli growth, 23 h; hits give low values. OD600 absorbance (test concentration not listed). 0.21% of 330,000 active. AID 1053175, 2014;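 active = OD600 absorbance below the run mean of sample wells minus 3.6 SD, in any replicate, cut at about 0.56 in these data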;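 also: stock transfer was 300 nL into about 60 µL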
UCH37 inh: inhibitors of human UCH37 deubiquitinase, primary screen, biochemical, Ub-AMC cleavage, fluorescence; purified proteasome/UCH37; inhibition, % (test concentration not listed); 0.33% of 330,000 active; Ubiquitin carboxyl-terminal hydrolase isozyme L5 (Homo sapiens), Q9Y5K5;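 active = mean of two replicates above 20%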;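 also: 0% = compound-free wells with enzyme and 100% = wells lacking proteasome; stock transfer was 100 nL into about 20 µL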
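Assay system: Proteasome-bound UCH37. Buffer or medium: pH 7.4 Tris-HCl (50 mM) with ovalbumin, ATP-MgCl2, DTT. Incubation: 30 min preincubation with enzyme, 25 min cleavage at room temperature. Measured by: fluorescence, ex 355 nm, em 460 nm. Read-out basis: percent inhibition. Control set: wells without proteasome as full block, compound-free enzyme plus substrate as uninhibited.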
Ecoli rRNA inh: reduced GFP signal of wild-type E. coli, primary screen, bacterial rRNA inhibitor project, GFP/RFP fluorescence, OD600, single point. 1.6% of 350,000 active. E. coli WT GFP vs humanized-ribosome RFP mutants, 24 h; hits give low values; DMSO median 0, no signal -100. AID 720706, 2013. GFP signal change (wild-type ribosome), % (concentration not given with the values);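 active = significant combined selectivity score with lowered wild-type GFP, culture density cut under 30%, mutant RFP and density less affected; inactive = any of these conditions unmet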; also: one replicate is shown; some compounds called inactive have numbers as strong as hits
AF4-AF9 inh: inhibitors of AF4 peptide binding to AF9, primary screen, biochemical, AlphaScreen, biotin-AF4 peptide, FLAG-AF9, single point; AID 651704, 2012; Protein AF-9 (Homo sapiens), P42568; 0.47% of 350,000 active; inhibition, % at 10 µM;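 active = every replicate reaching a set inhibition limit, whatever the replicate mean, cut at about 25% in these data; inconclusive = mean inhibition reaches that limit but some replicates miss it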;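 also: 0% = plate neutral control median and 100% = total signal loss; the record names both 10 and 1 µM as test concentration; the first replicate is given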
Target sequence (P42568 whole entry, looked up): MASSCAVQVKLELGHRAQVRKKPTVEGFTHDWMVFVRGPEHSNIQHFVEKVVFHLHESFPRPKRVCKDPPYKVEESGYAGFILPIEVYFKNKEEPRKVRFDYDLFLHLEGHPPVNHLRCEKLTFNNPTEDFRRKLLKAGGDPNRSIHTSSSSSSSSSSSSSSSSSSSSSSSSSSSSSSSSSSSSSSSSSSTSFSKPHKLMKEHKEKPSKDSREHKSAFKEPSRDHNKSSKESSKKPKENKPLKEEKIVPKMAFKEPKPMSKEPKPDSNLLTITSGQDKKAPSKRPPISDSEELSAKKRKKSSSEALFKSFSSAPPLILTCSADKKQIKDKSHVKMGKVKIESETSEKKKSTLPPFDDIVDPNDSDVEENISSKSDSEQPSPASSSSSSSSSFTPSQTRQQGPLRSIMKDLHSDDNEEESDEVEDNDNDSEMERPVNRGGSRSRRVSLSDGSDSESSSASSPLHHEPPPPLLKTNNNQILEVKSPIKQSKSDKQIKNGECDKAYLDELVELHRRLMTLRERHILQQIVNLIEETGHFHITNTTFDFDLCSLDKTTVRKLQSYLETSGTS
Bfl-1 A1 inh: caspase 3/7 activation in MEF A1-2A-BIM cells, primary screen, A1 inhibitor project, cell-based, luminescence, HTS; Caspase-Glo 3/7 luminescence, 3 h; percent of clofoctol response, vehicle zero; caspase activation, % (no concentration beside the values); 0.066% of 330,000 active; AID 2462, 2010;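 active = over half of replicate activation scores above 10%, or exactly half above 10 with the replicate mean above 10; inconclusive = replicate mean below 10 yet half the replicates above 10; inactive = over half of replicates below 10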;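 also: wells of about 30 µL received 50 nL stock; many hits fall short of the cut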
T cruzi inh: inhibitors of intracellular T. cruzi growth, primary screen, luminescence, NIH3T3 host cells; 1.4% of 300,000 active; T. cruzi beta-gal in NIH3T3, 90 h; inhibition, % (no concentration beside the values);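 active = mean inhibition across valid replicates above about 55%, limit read from the data; inconclusive = mean below that limit but half or more replicates reach it; inactive = mean below it, under half of replicates reach it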;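 also: signal also drops with host cell toxicity which is not excluded here; 0% = plate median of DMSO wells and 100% = zero luminescence signal; higher percent means less beta-gal luminescence so fewer parasites; stock transfer was 50 nL into about 50 µL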
FGF22 binding: binders of human FGF22 protein, primary screen, FGF22 synaptogenesis inhibitor project, biophysical, thermal shift, single point | 1.5% of 340,000 active | Fibroblast growth factor 22 (Homo sapiens), Q9HCT0 | recombinant FGF22 thermal shift, SYPRO orange fluorescence; percent of sucrose octasulfate shift, DMSO zero | calls only at 9.99 µM;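 active = melting point raised past a set limit in the mean and every replicate; inconclusive = no clear call; three in four hits are not shown here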
Target sequence (Q9HCT0 whole entry, looked up): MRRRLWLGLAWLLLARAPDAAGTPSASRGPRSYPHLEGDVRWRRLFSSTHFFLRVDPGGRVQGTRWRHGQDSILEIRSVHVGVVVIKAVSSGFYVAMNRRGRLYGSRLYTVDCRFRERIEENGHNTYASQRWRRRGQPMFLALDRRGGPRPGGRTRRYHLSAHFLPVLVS
Ecoli rRNA inh OD600: further read-out of Ecoli rRNA inh, marked with its call; OD600 change, %; measured here: OD600 growth;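 optical density of the mix in the first replicate; 0 = DMSO median and -100 = no signal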
Ecoli rRNA inh RFP: recorded beside Ecoli rRNA inh, whose call it bears; RFP signal change, %; measured here: RFP humanized mutant strains;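 first replicate; 0 = DMSO median and -100 = no signal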
An asterisk follows results filed as active; i = inactive; ? = inconclusive; · = no result given. An excerpt, so the mix of outcomes need not match the whole.

canonical_smiles	AF4-AF9 inh	E coli growth	FGF22 binding	Ecoli rRNA inh RFP	UCH37 inh	Ecoli rRNA inh OD600	Ecoli rRNA inh	T cruzi inh	Beta cell apopt	Bfl-1 A1 inh
CCCCN=C1SC(C(=O)Nc2sc3c(c2C(=O)OC)CCC3)C(N)=C1C(=O)N1CCOCC1 (centres undefined)	2.2	0.66	i	2.3	-6.3	-1	8	2	-18	0.0
CCOc1ccccc1N(CC(=O)Nc1ccc(S(=O)(=O)N2CCCC2)cc1)S(C)(=O)=O	0.8	0.7	i	2.2	2.8	-4	7	5	8	-0.7
COc1ccc(N2CCN(C(=O)C3CCCN(S(=O)(=O)c4ccc(C)cc4)C3)CC2)cc1 (centres undefined)	9.6	0.67	i	5.8	1.1	-19	-4	-8	11	1.0
O=C1CCCc2c1cc(-c1ccccc1)n2-c1ccccc1	·	0.75	·	·	0.2	·	·	30	4	-0.2
C[C@@]12CCC3[C@@](CCC4[C@@]3(C)CCC[C@@]4(C)C(=O)N3CCOCC3)(CC1=O)C2 (some centres undefined)	3.2	0.75	i	-2.6	-29	-8	-13	·	-6	?
O=C(N/N=C/c1ccc(F)cc1)c1ccccc1	-4.2	·	i	14	·	25	25	-5	1	-9.2
CC(=O)c1c(C)n([O-])c2cc(F)c(F)cc2[n+]1=O	2.6	0.11*	i	-3.6	7.8	-73	-34	30	·	-0.7
COc1ccc(CNC(=O)CN(C(=O)c2csnn2)c2ccc(C(C)=O)cc2)cc1	-2.2	0.69	i	0.2	-1.3	9	5	-2	0	0.0
Cc1cccc(-n2cnc3c(c2=O)c2nc4ccccc4nc2n3Cc2ccco2)c1	·	0.82	·	·	-6.4	·	·	-14	8	-0.1
C/C(CC(=O)NC1C2CC3CC(C2)CC1C3)=N\NC(=O)Cc1cccs1 (centres undefined)	-4.9	·	i	-3.1	·	10	1	5	-7	0.4
O=C(NNC(=O)C1CC(c2cccnc2)=NO1)Nc1cccc(F)c1 (centres undefined)	·	0.71	·	·	1.1	·	·	-1	-8	0.3
COc1cc(/C=N/NC(=O)c2sc3ccccc3c2Cl)ccc1OC(=O)c1ccc([N+](=O)[O-])cc1	8.4	·	i	-3.6	·	2	8	4	-3	-1.4
COC(=O)c1c(Cc2ccccc2Cl)c[nH]c1C	7.3	0.7	·	-17	2.7	-63	-57	-4	-9	1.4
COc1cc(CC(=O)N2CCc3ccccc32)cc(OC)c1OC	·	0.71	·	·	2.8	·	·	-15	·	1.1
Cc1cc(C)n2nc(C(=O)OCC(=O)N3CCC3)nc2n1	-2.2	0.68	i	-1.1	3.9	8	0	-9	1	0.9
CCOc1ccc2ccccc2c1C(=O)N1CCOCC1	·	0.7	·	·	-0.4	·	·	-8	-6	0.3
CN(C)c1ccc(NC(=S)NCC2CCCO2)cc1 (centres undefined)	-7.2	0.68	i	-5.4	5.0	17	11	-5	1	-0.8
COc1ccc(CCNC(=O)CSc2nncs2)cc1	·	0.67	·	·	1.5	·	·	-17	-1	0.1
O=C(Nc1nc(-c2ccccc2)cs1)NC1CCCCC1	·	0.65	·	·	3.5	·	·	·	-11	-0.2
O=C(CCC1CCCN(C(=O)COc2ccccc2)C1)N1CCN(c2ccccn2)CC1 (centres undefined)	-0.8	0.66	i	0.4	1.2	-9	-2	6	1	0.1
Cc1ccn2c(c1)nc(=S)n2C(=O)c1ccco1	·	0.67	·	·	4.9	·	·	2	-4	-0.9
Cc1ccc(S(=O)(=O)NC2(C(=O)O)CCCC2)cc1	-0.6	0.71	i	-2.3	1.5	7	7	·	·	·
COc1ccc(C(=O)/C=C2\NCC3c4ccccc4CCN3C2=O)cc1 (centres undefined)	·	0.7	·	·	2.0	·	·	6	-16	0.3
CC(C)CC(=O)Nc1ccc(C(=O)NNC(=S)NC(=O)C2CCCCC2)cc1	·	0.72	·	·	-9.1	·	·	-52	13	0.0
COc1cc2ccc(=O)oc2c(CC=C(C)C)c1OC	-0.3	0.79	i	·	-34	·	·	7	·	0.1
CC(C)OCCCNC(=O)CN1C(=O)c2cccc3cccc1c23	-2.5	0.63	i	-1.7	-34	-1	7	3	-3	0.9
CCCCNc1cc(C)nc(NCc2ccccc2)n1	·	0.67	·	·	-4.3	·	·	39	104*	0.4
CCOC(=O)c1ccc(NC(=O)CCNC(=O)c2ccc([N+](=O)[O-])cc2)cc1	·	0.7	·	·	2.4	·	·	-1	1	-0.2
Cc1cccc(C)c1NC(=O)CSc1nnc(NC(=O)C2CC2)s1	-0.6	0.7	i	0.4	4.1	19	11	-2	-2	0.6
CC(=O)Oc1ccc2nc(-c3ccc(Br)o3)oc(=O)c2c1	-3.4	0.7	i	6.3	-8.0	7	13	-9	0	-4.7
C#CCOCCOCCOCCNc1nc(N2CCN(C(=O)C([C@@H](C)CC)n3cc(C(N)COC(=O)C(F)(F)F)nn3)CC2)nc(N2CCN(C(=O)[C@H](Cc3cc4ccccc4[nH]3)n3cc(C(N)CO)nn3)CC2)n1 (some centres undefined)	·	·	·	·	2.1	·	·	-6	1	0.7
CCOC(=O)c1sc(N)c(C(=O)OCC)c1C	0.0	0.66	i	0.7	-1.5	-1	-6	7	-1	-0.8
COCCC(=O)Nc1ccc2c(c1)CN(C(=O)CCOC)CC2	-0.9	0.66	i	1.1	0.7	14	14	15	-2	-0.4
O=C(Nc1ccccc1O)/C(=C\c1ccccc1)NC(=O)c1ccccc1	-0.8	0.65	i	-8.0	0.3	5	9	-17	2	1.4
CCOC(=O)C1=C(COC(=O)c2ccccc2OC)NC(=O)NC1C (centres undefined)	-4.4	0.67	i	0.7	1.8	-2	-6	·	·	·
CCOc1ccc(N2C(=O)CC(Sc3nc4ccc(OCC)cc4s3)C2=O)cc1 (centres undefined)	·	0.7	·	·	4.3	·	·	-3	-11	-0.7
COc1ccccc1C1SCCN1S(C)(=O)=O (centres undefined)	·	0.74	·	·	-0.5	·	·	1	-1	0.2
CC(C)=CC(=O)OCC(=O)NC(=O)NC(C)(C)C	·	0.7	·	·	-0.4	·	·	·	-4	-0.8
CCN(C(=O)CSc1nnc(-c2ccc(F)cc2)c2ccccc12)C1CCS(=O)(=O)C1 (centres undefined)	1.9	0.7	i	2.9	3.9	-2	11	4	5	-0.2
COc1ccc2c3c([nH]c2c1)C1CC2C(CC(O)C(OC)C2CO)CN1CC3 (centres undefined)	1.9	0.69	i	·	-6.9	·	·	-4	-2	1.0
CSc1ccccc1C(=O)OCC(=O)NC1CCS(=O)(=O)C1 (centres undefined)	-2.3	0.7	i	3.1	2.4	13	11	6	-7	1.1
CCOC(=O)c1nc(Nc2ccc(C)cc2)c2ccccc2n1	·	0.7	·	·	-0.6	·	·	7	12	-0.1
CC1OC2(C)OC(=N)C1(C#N)C(C#N)(C#N)C2c1ccccc1 (centres undefined)	0.5	0.68	i	19	-106	-8	1	1	2	-0.7
COc1cc(C)nc(NC(=O)COc2ccc(Cl)cc2C)n1	·	0.74	·	·	1.4	·	·	-3	7	-5.8
Nc1c(-c2ccccc2Cl)cnn1-c1cccc([N+](=O)[O-])c1	·	0.7	·	·	1.3	·	·	-2	2	-1.4
COc1ccc(C)cc1NC(=O)NCc1ccccn1	-0.7	0.69	i	3.6	0.7	10	11	-12	-6	0.2
O=C(CCc1nnc(Cc2c[nH]c3ccccc23)o1)NCC1CC12CCCCC2 (centres undefined)	1.6	0.66	i	-3.5	3.1	-70	-47	6	-4	0.0
COc1ccc(CC2(C)OC(c3ccc([N+](=O)[O-])cc3)=NN2C(C)=O)cc1 (centres undefined)	27*	0.68	i	0.2	5.2	-5	-8	-5	-7	0.2
CC(=O)c1ccc(S(=O)(=O)NCC2(N3CCOCC3)CCCCC2)cc1	2.2	0.68	i	0.5	4.7	3	4	·	-3	1.0
Nc1nc(-c2ccccc2)cc(-c2ccccc2O)n1	·	0.65	·	·	4.5	·	·	0	-19	0.0
O=C(O)COc1ccc(/C=N/NC(=O)C(O)(c2ccccc2)c2ccccc2)cc1	-0.7	·	i	-3.4	·	-8	8	-12	1	-0.1
O=C(COc1coc(CN2CCc3ccccc3C2)cc1=O)Nc1cccc(F)c1	0.8	0.71	i	-1.4	2.7	-1	5	5	·	-0.7
Cc1ccc(S(=O)(=O)NCCC(=O)OCC(=O)NCCc2ccccc2)cc1C	-3.1	0.64	i	0.6	0.4	-12	-3	3	-2	-0.2
CCOC(=O)c1c(C)c(C(=O)Nc2ccc3c(c2)OCCO3)c(C)n1C	·	0.71	·	·	5.4	·	·	-2	-7	-1.1
COCCN(C(=O)COC(=O)CCS(=O)(=O)c1ccccc1)c1c(N)n(Cc2ccccc2)c(=O)[nH]c1=O	-1.9	0.65	i	0.1	0.4	10	5	-6	·	1.6
Cc1c(Cl)cccc1N1C(=O)CC(NNC(=O)c2ccc3c(c2)OCO3)C1=O (centres undefined)	2.7	0.7	i	-0.9	6.4	5	0	·	-8	0.9
CCn1c(Cc2ccccc2)nnc1SCc1nc2ccccc2c(=O)[nH]1	·	0.7	·	·	5.0	·	·	15	-7	0.1
